VDR inhibitor: blocks the human vitamin D receptor; P11473; VDR-SRC2-3 peptide fluorescence polarization, 2 h; Potency, µM, without a hit: max response, negative = inhibition, actives largely listed as inhibitors; 400,000 compounds, 0.93% hits; AID 504847; active = well fitted inhibition curve with a large enough effect; inconclusive = small, poorly fitted or top-dose-only effect, or another doubt; inactive = no such curve, though single readings can be large or run the other way; also: series mostly up to about 120 µM
Target sequence (P11473 whole entry, looked up): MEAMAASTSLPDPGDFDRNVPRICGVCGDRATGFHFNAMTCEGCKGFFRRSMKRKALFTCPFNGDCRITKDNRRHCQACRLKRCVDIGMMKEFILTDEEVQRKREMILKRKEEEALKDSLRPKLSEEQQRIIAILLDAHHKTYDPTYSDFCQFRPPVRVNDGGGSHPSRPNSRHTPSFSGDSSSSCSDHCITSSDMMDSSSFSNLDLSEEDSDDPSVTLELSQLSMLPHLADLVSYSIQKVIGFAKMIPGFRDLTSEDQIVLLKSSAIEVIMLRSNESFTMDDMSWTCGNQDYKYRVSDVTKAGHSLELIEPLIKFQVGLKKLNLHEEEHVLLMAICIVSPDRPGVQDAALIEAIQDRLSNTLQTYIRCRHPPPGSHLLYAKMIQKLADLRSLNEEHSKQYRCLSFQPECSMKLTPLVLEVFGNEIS
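Fluorescence polarization assay of small-molecule disruption of VDR binding to coregulator peptide SRC2-3. Compounds and controls pin-transferred, then read after 2 h incubation at ambient room temperature.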
* hit, by the source's call; ? = inconclusive; [ ] = remark or other dose. % is scaled to controls: 0 for no effect and ±100 for the full control effect; potency is read from the fitted curve at half-maximal effect. These rows are one share of the data, so the mix of outcomes need not match the whole.

item	canonical_smiles	VDR inhibitor
1	Cc1cc(C(F)(F)F)nc(SCC(=O)Nc2ccccc2)n1	11%
2	Cc1ccnc(NCc2ccc(Br)cc2)c1	18%
3	CCCOc1ccc(C2c3c(oc4cc(C)c(C)cc4c3=O)C(=O)N2CCCN2CCOCC2)cc1 (stereo not drawn)	5%
4	O=C(CN1CCN(S(=O)(=O)c2cc(Cl)ccc2Cl)CC1)Nc1ccc2c(c1)OCCO2	12%
5	CCCC(=O)OC1(C(=O)CO)CCC2C3CCC4=CC(=O)CCC4(C)C3C(O)CC21C (stereo not drawn)	4%
6	CCc1ccc(C(=O)c2cn(CC(=O)Nc3ccc(OC)c(Cl)c3)c3nc(C)ccc3c2=O)cc1	5%
7	COC(=O)C1C(=O)CC(C)(O)C(C(=O)OC)C1c1ccc2c(c1)OCO2 (stereo not drawn)	14%
8	C=CCn1c(COc2cccc(C)c2)nnc1SCC(=O)c1c[nH]c2c(CC)cccc12	-12%
9	CCCNC(=O)CNC(=O)c1ccc(C#N)cc1	-25%
10	O=C(Nc1ccc([N+](=O)[O-])cc1Cl)c1cc(Br)ccc1O	10%
11	COc1ccc(CCNC(=O)c2cccn2C)cc1	9%
12	Cc1ccccc1Nc1c(-c2ccc(Cl)cc2)nc2c(C)cccn12	-6%
13	Cc1ccc(OCC(=O)NC(=S)Nc2cccc(C)n2)cc1	2%
14	N#Cc1c(N)nc2c(c1N)CC(C(F)(F)F)O2 (stereo not drawn)	0%
15	Nc1nc(N2CCN(C(c3ccccc3)c3ccccc3)CC2)n[nH]1	-5%
16	O=S(=O)(NCCN1CCCC1)c1ccc(Br)cc1	-14%
17	CCCc1cc(=O)[nH]c(SCC(=O)c2ccc3c(c2)OCCO3)n1	-17%
18	Cc1ccn2c(NCc3ccco3)c(-c3ccccc3)nc2c1	4%
19	O=C(Oc1ccccc1F)C1CCN(C(=O)c2ccc(F)cc2)CC1	-7%
20	Cc1ccc(C(=O)c2cn(-c3ccc(F)c(Cl)c3)nn2)cc1	9%
21	O=C(N/N=C\c1ccc2c(c1)OCO2)c1cncc(Br)c1	8%
22	Cc1ccc(C(=O)Nc2nc(-c3cccnc3)cs2)o1	-10%
23	COc1ccc(-n2c(SCC(=O)Nc3ccc(NC(C)=O)cc3)nc3c([nH]c4ccccc43)c2=O)cc1OC	1%
24	CCCCc1c(O)n2c(nc3ccccc32)[nH]c1=O	7%
25	CC(C)CCn1c(=O)c2cccnc2n(CC(=O)Nc2ccccc2)c1=O	9%

The last four records of the part above open the next one.
item	canonical_smiles	VDR inhibitor
22	Cc1ccc(C(=O)Nc2nc(-c3cccnc3)cs2)o1	-10%
23	COc1ccc(-n2c(SCC(=O)Nc3ccc(NC(C)=O)cc3)nc3c([nH]c4ccccc43)c2=O)cc1OC	1%
24	CCCCc1c(O)n2c(nc3ccccc32)[nH]c1=O	7%
25	CC(C)CCn1c(=O)c2cccnc2n(CC(=O)Nc2ccccc2)c1=O	9%
26	FC(F)(F)c1cc(Oc2ccccc2Cl)nc(-c2ccccn2)n1	-3%
27	COc1ccc(C)c2sc(N(CCN(C)C)C(=O)/C=C/c3cccs3)nc12	-20%
28	CSc1ccc(S(=O)(=O)NCc2ccccc2)cc1	22%
29	OC(COc1ccc(F)cc1Cl)CN1CCC(Cc2ccccc2)CC1 (stereo not drawn)	-10%
30	Cc1ccc(NCc2ccccc2F)cc1	-10%
31	COCc1nnc(NS(=O)(=O)c2ccc(Br)cc2)s1	5%
32	Cc1cccc(OCc2nc(C#N)c(NCc3ccccc3Cl)o2)c1	-13%
33	CCn1cc(S(=O)(=O)CC(=O)Nc2cc(C)ccc2C)c2ccccc21	-9%
34	Cc1onc(-c2ccccc2)c1C(=O)N1CCCN(C(=O)c2c(-c3ccccc3)noc2C)CC1	-3%
35	COc1ccc(Nc2c(-c3ccccn3)nc3ccc(Cl)cn23)cc1	9%
36	COc1ccc(CNc2ccnc(-c3cccnc3)n2)c(OC)c1	?
37	CCC(CO)Nc1ccc(-c2n[nH]c(=O)c3ccccc23)cc1[N+](=O)[O-] (stereo not drawn)	10%
38	CC1COc2ccccc2N1S(=O)(=O)c1cc(Cl)ccc1Cl (stereo not drawn)	-8%
39	CCCn1c(O)c(CN2CCCCC2)c(C)c(C#N)c1=O	-17%
40	Cc1ccc(OCC(=O)Nc2ccc3c(c2)OCO3)c(C)c1	-1%
41	Cc1cc2[nH]c(=O)c(=O)[nH]c2cc1S(=O)(=O)Nc1cccc(Cl)c1C	-7%
42	O=C(NC1CCCCCCC1)C1CCC(CNc2c(N3CCCC3)c(=O)c2=O)CC1 (stereo not drawn)	-26%
43	Cc1ccc(CNC(=S)Nc2ccc(OC(F)F)cc2C)cc1	-23%
44	O=C(COC(=O)c1cc(S(=O)(=O)N2CCCCC2)ccc1N1CCOCC1)NCCc1ccc(F)cc1	-18%
45	O=C(NCc1ccco1)C(=S)N1CCCC1	-1%
46	O=C(Cn1ccn(-c2ccc(F)c(F)c2)c(=O)c1=O)c1ccc(F)cc1	1%
47	CCc1ccc(-n2nc(C)c3c(C)cc(=O)n(CC(=O)Nc4cc(Cl)ccc4OC)c32)cc1	11%
48	Cc1cccc(NC(=O)c2ccc(Cl)c(S(=O)(=O)N3CCCC3)c2)n1	16%
49	Cc1nnc(NC(=O)CCSc2ccccc2)s1	3%
50	O=C(C1CCN(S(=O)(=O)N2CCOCC2)CC1)N1CCN(Cc2ccc3c(c2)OCO3)CC1	2%
51	CN(Cc1ccccc1)C(=O)c1cccc(NC(=O)Cc2cccc([N+](=O)[O-])c2)c1	14%
52	Cc1ccc(S(=O)(=O)NCC(c2cccnc2)N(C)C)cc1 (stereo not drawn)	-20%
53	Cc1cc(=O)[nH]c(N/N=C/c2c(C)oc3ccccc23)n1	4%
54	O=c1c2cn[nH]c2[nH]c(=S)n1-c1cccc(Cl)c1	-5%
55	COc1ccc(-c2cnc3c(c2)CCC3(C#N)C#N)cc1	79µM*
56	O=C(NCc1ccco1)Nc1cccc2ccccc12	11%
57	Cc1ccc(CNC(=O)CN2C(=O)CC(c3ccc(C)c(C)c3)=Nc3ccccc32)cc1	5%
58	COc1ccc2c(Cl)c(C(=O)NCc3ccco3)sc2c1	3%
59	Cc1nn(-c2ccccc2)c(C)c1C(=O)OCC(=O)Nc1cccc(S(N)(=O)=O)c1	12%
60	COCCn1c(C)cc(O)c(C(c2ccccc2)N2CCC(C)CC2)c1=O (stereo not drawn)	?
61	Cc1ccc(S(=O)(=O)NCC2CCC(C(=O)NCCCN3CCOCC3)CC2)cc1 (stereo not drawn)	0%
62	Cn1cc(Br)c(NC(=O)/C=C/C(=O)O)n1	-18%
63	O=c1c(-c2ccc(Br)cc2)coc2c(CN3CCCCC3)c(O)ccc12	-15%
64	CC(=O)C(C(c1ccccc1)N1CCCc2ccccc21)N1CCOCC1 (stereo not drawn)	-2%
65	CCN(CCn1cccn1)Cc1cn[nH]c1-c1ccc(-c2ccccc2)cc1	-12%
66	COc1cc(OC)cc(C(=O)NNC(=O)c2cc(S(=O)(=O)N3CCOCC3)ccc2F)c1	19%
67	N#C/C(=C/c1cn(-c2ccccc2)nc1-c1cccc(OCc2ccc(F)cc2)c1)C(=O)NCCCn1ccnc1	-16%
68	O=C1N[C@H](Cc2ccccc2)COC(=O)[C@@H](Cc2ccc(F)cc2)C/C=C\C[C@H]1CC(=O)N(CCO)Cc1ccccc1	4%
69	COc1ccc(C2=[N+]([O-])C(C)(C)C(c3ccccc3)=N2)cc1	4%
70	Cc1cccc(N/C(N)=N/c2nc(C)cc(=O)[nH]2)c1	-14%
71	Cc1ccn2cc(-c3ccc(Br)cc3)nc2c1	-18%
72	O=C(Cc1ccccc1[N+](=O)[O-])NCC(=O)c1ccc2c(c1)OCO2	-13%
73	CC1CC(C)CN(C(=O)COC(=O)Cc2c[nH]c3ccccc23)C1 (stereo not drawn)	-12%
74	COc1ccc(OCC(=O)Nc2ccccc2C(=O)N2CCOCC2)cc1	-3%
75	COc1ccc(CN2C(=O)C(Cc3ccccc3)Nc3ncnc(N4CCOCC4)c32)cc1 (stereo not drawn)	-20%

Remaining list, next part
item	canonical_smiles	VDR inhibitor
76	CCN(CC)C(=O)COc1ccc(Br)cc1Cl	-10%
77	O=C(COC(=O)CNS(=O)(=O)c1ccccc1)NC12CC3CC(CC(C3)C1)C2	-8%
78	CCN(C(=O)CN1CCCc2cc(C)ccc21)c1c(N)n(Cc2ccccc2)c(=O)[nH]c1=O	-12%
79	CCCNC(=O)C(Cc1cccc(OC)c1)NC(=O)c1ccc(C(C)(C)C)cc1 (stereo not drawn)	-9%
80	Cc1nc2ccccn2c1P(=Nc1ccccc1)(N(C)C)N(C)C	-1%
81	Cc1cc(O)c(C(=O)/C=C/c2c(F)c(F)c(F)c(F)c2F)c(=O)o1	-6%
82	Cc1cc(C)cc(OCC(=O)OCC(=O)c2ccc3c(c2)NC(=O)CO3)c1	1%
83	COc1ccc(N(C(=O)CNC(=O)c2ccco2)C(C(=O)NC2CCCCC2)c2cccnc2)cc1 (stereo not drawn)	10%
84	COc1ccc(S(=O)(=O)NCC(c2ccco2)N2CCOCC2)cc1OC (stereo not drawn)	4%
85	COc1ccc(-c2cc(C(F)(F)F)n3nc(C(=O)Nc4cc(C)on4)cc3n2)cc1OC	13%
86	COCCNC(=S)N1CCN(c2nc3ccccc3s2)CC1	10%
87	CCOC(=O)c1ccc(NC(=O)c2ccc(CN3C(=O)CCn4nc(C)cc43)cc2)cc1	5%
88	O=C(NC1CCCCC1)c1cccc(OCc2ccccc2)c1	6%
89	CC(C)CCN(CCC(C)C)C/C(O)=C(\C#N)c1nc(-c2ccccc2)cs1	-5%
90	O=C(COC(=O)/C=C/c1cccc(C(F)(F)F)c1)NCc1ccc(F)cc1	-11%
91	COc1cc(CCC(=O)OCC(=O)Nc2ccc(F)c(F)c2)cc(OC)c1OC	-19%
92	Oc1ccc(Cl)cc1CNCc1ccc(C(F)(F)F)cc1	2%
93	COc1ccc(/C=C/c2nc(C#N)c(NCCc3ccc(OC)c(OC)c3)o2)cc1OC	6%
94	C/C(=N/NC(=O)c1ccncc1)c1ccc(NC(=O)c2ccc(Cl)cc2Cl)cc1	1%
95	CN(C(=O)c1ccncc1)c1nnc(-c2cccnc2)s1	-20%
96	COc1ccc(Nc2nc3cc(Cl)c(Cl)cc3n3cnnc23)cc1Cl	7%
97	Cc1ccc(S(=O)(=O)N(CCc2ccccc2)CC(=O)Nc2cc(C)ccc2C)cc1	6%
98	CC(C)CC(NS(=O)(=O)c1ccc2c(c1)oc(=O)n2C)C(=O)N1CC=C(c2ccccc2)CC1 (stereo not drawn)	-15%
99	COc1ccc(Br)cc1CN(C)CC(=O)Nc1c(Cl)ccc(C)c1Cl	-3%
100	CSCCC(NC(=O)c1ccccc1Cl)C(=O)NNC(=O)c1ccncc1 (stereo not drawn)	-17%

Structures from the list above with a thiophene ring, fused or not:
item	canonical_smiles	VDR inhibitor
27	COc1ccc(C)c2sc(N(CCN(C)C)C(=O)/C=C/c3cccs3)nc12	-20%
58	COc1ccc2c(Cl)c(C(=O)NCc3ccco3)sc2c1	3%

(listing goes on)
item	canonical_smiles	VDR inhibitor
101	COc1ccc(-n2c(=S)[nH]c3cc(C(=O)NCCCN4CCCC4=O)ccc3c2=O)cc1	1%
102	COc1ccc(C(=O)N2CCN(c3ccc(C)cc3)CC2)cc1OC	9%
103	CCC(C)C(NC(=O)OC(C)(C)C)C(=O)NC1COC2CC(n3cc(C)c(=O)[nH]c3=O)OC12 (stereo not drawn)	-14%
104	Cc1ccc(CCNC(=O)CC2Oc3ccc(C)cc3NC2=O)cc1 (stereo not drawn)	-8%
105	COC(=O)C1(C(=O)OC)Sc2ccccc2C1=O	21%
106	COc1ccccc1N1CCN(C(=O)C2CCN(S(=O)(=O)c3ccccc3F)CC2)CC1	-5%
107	CC(=O)c1ccc(NC(=O)CN2CCN(S(=O)(=O)c3ccc4ccccc4c3)CC2)cc1	-12%
108	CC1=C(c2ccc(C(C)C)cc2)S(=O)(=O)NC1=NCc1ccccc1C	13%
109	Cc1cccc(NC(=O)c2sc3nc(N)c(C#N)cc3c2N)c1	-7%
110	O=C(NCc1ccccn1)c1cc(-c2ccccc2)nc2ccccc12	4%
111	O=C(Nc1ccc(-c2nc3ccccc3s2)cc1)c1cc(-n2cnnc2)ccc1Cl	40%[activator]
112	Cc1cc(NC(=O)c2ccc3c(c2)C(=O)N(CC(C)C)C3=O)no1	3%
113	COCCCn1c(C(=O)NCCN2CCOCC2)cc2c(=O)n3cccc(C)c3nc21	6%
114	Nc1ncnc2nc(SCc3ccc(Cl)cc3Cl)[nH]c12	-8%
115	CC1Cc2cc(S(=O)(=O)CCC(=O)NCc3ccccc3Cl)ccc2N1C(=O)C1CC1 (stereo not drawn)	2%
116	Cc1ccc(-n2c(Cc3cccn3C)nnc2SCC(=O)NCc2ccco2)cc1	9%
117	Cc1ccc(-n2c(C)cn(C(=O)c3ccccc3)c2=S)cc1	-19%
118	Cc1ccc2oc(-c3ccc(NC(=O)CCC(=O)O)cc3)nc2c1	-7%
119	Cc1cc(C)n(CC(=O)N/N=C/c2ccc(C)o2)n1	-6%
120	COc1ccc(C(=O)NC2(C(F)(F)F)C(=O)N(Cc3ccco3)C3=C2C(=O)CC(C)(C)C3)cc1OC (stereo not drawn)	20%
121	CCN(C(=O)COC(=O)Cc1cccc2ccccc12)C1CCS(=O)(=O)C1 (stereo not drawn)	4%
122	CCOC(=O)c1ccc(N=CC2=C(O)CC(C)(C)CC2=O)cc1	8%
123	COCCN=c1scc(-c2cc(OC)ccc2OC)n1/N=C/c1c[nH]c2ccccc12	0%

Screening results (PubChem BioAssay)
